Bioassay records as filed in PubChem BioAssay.
GLA inh pH 4.5 – alpha-galactosidase A (human) inhibition, pH 4.5; activity change, negative = inhibition, % at 105 µM; 230,000 tested, under 10 active; purified enzyme, 4-MU-alpha-Gal fluorescence, pH 4.5; inconclusive = small, poorly fitted or top-dose-only inhibition, or a rising curve; inactive = flat fitted curve, though single readings scatter; no compound was filed as active;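 also: 0% = full activity with enzyme and -100% = basal without enzyme; dose as in the result columns while the protocol names 77 µM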
miR-21 FLuc – miR-21 reporter, rising signal. HeLa miR-21 FLuc reporter, luciferase, 48 h. Potency, µM (series often up to 38.3 µM), without a hit: at the top dose reporter change, positive = more light. 340,000 tested, under 10 active. AID 2288; active = well fitted rising curve with a large enough effect; inconclusive = small, poorly fitted or top-dose-only effect; inactive = no such curve, though single readings can be large or run the other way;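 also: % of control where 0% means no effect; miR-21 action dims this reporter so a rising signal means less miR-21 action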
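Compounds were titrated across several concentrations (up to approximately 40 uM) and incubated 48 hours with HeLa miR-21-FLuc reporter cells (miR-21 target sequence downstream of FLuc, endogenous miR-21). Readout was firefly luciferase luminescence after lytic detection reagent.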
Rango-impB inh – inhibitors of Rango-importin beta complex formation. Potency, µM (series often up to 92.2 µM), without a hit: at the highest dose inhibition of complex formation. Rango CFP/YFP FRET sensor + importin beta, 45 min. 340,000 tested, 0.031% active. Q14974; active = rising FRET ratio curve, often small or poorly fitted; inconclusive = mostly compound fluorescence or quenching in the first reads; inactive = flat curves in all reads;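 also: potency is read from the fitted curve at half-maximal effect; 0% = DMSO wells and 100% = buffer wells lacking importin beta; nearly all actives have a fitted effect of over 15% in size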
Target sequence (Q14974 whole entry, looked up): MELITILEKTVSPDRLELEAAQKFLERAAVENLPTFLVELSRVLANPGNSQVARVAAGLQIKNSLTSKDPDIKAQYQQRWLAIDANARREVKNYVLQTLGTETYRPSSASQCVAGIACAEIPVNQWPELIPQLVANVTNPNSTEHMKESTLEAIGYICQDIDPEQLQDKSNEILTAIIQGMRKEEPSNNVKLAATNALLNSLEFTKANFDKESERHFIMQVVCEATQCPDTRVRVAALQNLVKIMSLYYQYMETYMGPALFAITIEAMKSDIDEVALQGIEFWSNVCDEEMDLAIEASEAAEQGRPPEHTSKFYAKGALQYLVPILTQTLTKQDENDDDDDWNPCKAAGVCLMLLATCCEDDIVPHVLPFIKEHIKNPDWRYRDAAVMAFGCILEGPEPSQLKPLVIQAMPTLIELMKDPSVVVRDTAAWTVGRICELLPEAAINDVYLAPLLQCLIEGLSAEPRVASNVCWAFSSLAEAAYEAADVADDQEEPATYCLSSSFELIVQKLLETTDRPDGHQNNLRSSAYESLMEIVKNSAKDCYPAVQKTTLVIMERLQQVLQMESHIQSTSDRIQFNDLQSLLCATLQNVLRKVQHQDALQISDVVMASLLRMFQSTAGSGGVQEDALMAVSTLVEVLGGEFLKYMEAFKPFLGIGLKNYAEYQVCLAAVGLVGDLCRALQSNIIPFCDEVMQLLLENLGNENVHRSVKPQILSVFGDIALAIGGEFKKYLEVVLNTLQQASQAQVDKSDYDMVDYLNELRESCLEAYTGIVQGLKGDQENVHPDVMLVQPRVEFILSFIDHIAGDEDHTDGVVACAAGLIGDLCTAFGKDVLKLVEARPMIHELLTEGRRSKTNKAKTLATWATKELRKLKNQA
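FRET biosensor (snurportin 1 IBB flanked by EYFP and cerulean), 50 nM, with compound 5 min, then 0.125 microM importin beta in PBS, 1 mM DTT, 0.02% Tween-20, 0.1% BSA. CFP/YFP ratio read after 45 min at room temperature; pre-read flags interference.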
Rango dissoc inh – prevents RanGTP from dissociating the Rango-importin beta complex. Potency, µM (series often up to 46.1 µM), for the others: at the highest dose activity change, negative = inhibition. AID 540253. 340,000 tested, 0.071% active. Biochemical FRET Rango-importin beta, RanGTP-induced dissociation; active means falling FRET ratio curve, often poorly fitted, with flat reads before Ran was added; inconclusive means other falling curves, or compound fluorescence or quenching; inactive means flat or rising ratio curve;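 also: potency is read from the fitted curve at half-maximal effect; % of control where 0% means no effect; nearly all actives have a fitted effect of over 45% in size; -100% = wells without RanGTP and RCC1; the record marks most hits as doubtful in a second field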
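Quantitative HTS using a FRET biosensor: 0.1 uM Rango, 0.25 uM importin beta, 0.6 uM Ran, 2 mM GTP, 0.2 uM RCC1 final, PBS with DTT, Tween-20 and BSA. Post-read taken 45 min after Ran addition.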
Starred values were filed as active, the others as inactive; ? = inconclusive; / = not tested or not shown; & = joins results of further samples; [ ] = dose if it differs, or a comment. An excerpt; count on the stated rates, not on these rows.

cpd | GLA inh pH 4.5 | miR-21 FLuc | Rango-impB inh | Rango dissoc inh | smiles
1 | -5 | -13% | -0.3% | 1% | CN(C)c1ccncc1C(=O)Nc1ccc(F)cc1F
2 | / | 0% | -0.4% | 10% | Cc1ccc(C)c(N2C(=O)CC(Cc3ccccc3)C2=O)c1 (stereo not drawn)
3 | / | 1% | 0.7% | 0% | Cc1cc(C)c[n+](-c2[nH]c(=O)sc2/C=N/N=C(\[O-])c2cccnc2)c1
4 | / | / | -1.4% | -19% | COc1ccccc1C(=O)OCC(=O)NC(=O)NC1CCCC1
5 | / | -4% | -0.2% | 1% | COCCC(=O)N1CCCC(C(=O)c2ccc(C(F)(F)F)cc2)C1 (stereo not drawn)
6 | 6 | -2% | -2.9% | -9% | COc1ccc(OC)c(NC(=O)CCC(=O)Nc2nnc(C(F)(F)F)s2)c1
7 | / | 0% | -2.8% | 12% | COc1ccccc1Oc1ccc(N2CC(C(=O)OCC(=O)c3ccccc3)CC2=O)cc1 (stereo not drawn)
8 | 3 | -1% | -0.4% | ? | O=C1CN(C(=O)CSc2nc(-c3ccccc3)cs2)c2ccccc2N1
9 | 1 | 0% | -2.9% | 27% | CC1CCCC(NC(=O)COC(=O)COc2ccc(Cl)cc2)C1C (stereo not drawn)
10 | 3 | 1% | ? | ? | Cc1ccc(S(=O)(=O)/C(C#N)=C/c2c(N3CCOCC3)nc3ccccn3c2=O)cc1
11 | -2 | -32% | 2.0% | 0% | COc1cccc(Nc2nc(N)nc(-c3oc4ccccc4c3C)n2)c1
12 | -1 | -7% | -1.3% | 1% | CC(C)(C)c1ccc(NC(=O)COC(=O)c2ccc([N+](=O)[O-])s2)cc1
13 | 3 | -39% | -3.9% | -8% | Cc1sc2ncn(-c3ccccc3)c(=O)c2c1C
14 | / | 2% | -3.0% | 1% | COc1ccccc1CN1CC(C(=O)NCCc2cn[nH]c2)CCC1=O (stereo not drawn)
15 | -3 | 1% | -0.4% | 4% | Cc1ccc(S(=O)(=O)NNC(=O)c2cccs2)c(C)c1
16 | 5 | -10% | 1.3% | 2% | O=C1CC(c2cccc(Cl)c2)CC(O)=C1C=NC1CCCC1 (stereo not drawn)
17 | 8 | -4% | 2.3% | 0% | CCc1nnc(NS(=O)(=O)c2ccc(NC(=O)COc3ccc4ccccc4c3)cc2)s1
18 | -6 | -9% | -1.0% | 2% | COc1ccc2[nH]c(=O)c(CN(C(=O)c3ccncc3)C(C)C)cc2c1
19 | -11 | -23% | 5.8% | 6% | Cc1[nH]c2ccccc2c1N=Nc1ccccc1F
20 | / | / | -1.2% | -5% | O=C(Nc1ccc(Cl)cc1)P(=O)(O)c1ccccc1
21 | 6 | -3% | 1.1% | 13% | CCOC(=O)N1CCN(C(=O)COc2cc(=O)n(C)c3ccccc23)CC1
22 | / | 1% | 0.1% | 26% | CC(=O)Nc1ccc(C(=O)NNC(=O)C2CC2)cc1
23 | / | -1% | -1.4% | 0% | CN(C)S(=O)(=O)c1ccc(Cl)c(C(=O)NCCNC(=O)c2cc(S(=O)(=O)N(C)C)ccc2Cl)c1
24 | ? | 0% | -3.0% | ? | CCOC(=O)c1cnc(-c2ccccc2)nc1Oc1ccc(C)cc1
25 | -5 | -3% | 3.0% | -9% | COc1cc([N+](=O)[O-])ccc1NC(=O)CN1CCOCC1
26 | -7 | -2% | 4.5% | 13% | CC(C)(C)C(=O)NC(=S)NNC(=O)c1ccncc1
27 | / | 11% | -0.8% | -17% | COC(C(=O)Nc1ccnn1C1CCN(Cc2ccc(Cl)s2)CC1)c1ccccc1 (stereo not drawn)
28 | 6 | -4% | -1.5% | -4% | Cc1ccc(OCC(O)CN2CCN(c3ccccc3)CC2)cc1 (stereo not drawn)
29 | -13 | -7% | 5.5% | -12% | O/N=C/c1cccnc1Sc1ccccc1
30 | -4 | -19% | 0.7% | -1% | CCOc1ccc(CN(C(=O)c2ccco2)C2CCS(=O)(=O)C2)cc1 (stereo not drawn)
31 | / | -6% | 0.3% | 0% | O=S(=O)(Nc1ccccc1)c1cccc2nsnc12
32 | 5 | 1% | 0.2% | -8% | CC(=O)Nc1nonc1-c1nc2ccccc2n1N(C(C)=O)C(C)=O
33 | -3 | 14% | -0.1% | -8% | CCNC(=S)N1N=C2c3ccccc3CCC2C1c1ccc(F)cc1 (stereo not drawn)
34 | 0 | -1% | -0.3% | 32% | CC(OC(=O)c1cc(Cl)ccc1[N+](=O)[O-])C(=O)NC(C)c1ccc(F)cc1 (stereo not drawn)
35 | 4 | -3% | 0.2% | -8% | CCOC(=O)C1CCN(C(=O)CCS(=O)(=O)c2ccc3c(c2)CCN3C(C)=O)CC1
36 | / | 7% | 4.3% | -3% | COc1ccc(NS(=O)(=O)c2ccc3oc(SC)nc3c2)cc1
37 | -10 | -2% | -1.4% | -4% | O=C(Nc1ccnc(-c2ccncc2)n1)c1ccccc1Cl
38 | 3 | -2% | -1.9% | 1% | CC1(C)CC(N(Cc2ccco2)C(=O)Cc2ccccc2)CCO1 (stereo not drawn)
39 | 7 | -9% | / | / | Cc1ccc(NC(=O)c2snc3c(=O)[nH]cnc23)cc1C
40 | -4 | -7% | ? | ? | COC(=O)C1=C(C)NC2=C(C(=O)C(C(=O)OC)C(c3ccc(OC)cc3)C2)C1c1ccccn1 (stereo not drawn)

Part of the list above in order of number of heavy atoms, rising:
cpd | GLA inh pH 4.5 | miR-21 FLuc | Rango-impB inh | Rango dissoc inh | smiles
19 | -11 | -23% | 5.8% | 6% | Cc1[nH]c2ccccc2c1N=Nc1ccccc1F
9 | 1 | 0% | -2.9% | 27% | CC1CCCC(NC(=O)COC(=O)COc2ccc(Cl)cc2)C1C (stereo not drawn)
8 | 3 | -1% | -0.4% | ? | O=C1CN(C(=O)CSc2nc(-c3ccccc3)cs2)c2ccccc2N1
23 | / | -1% | -1.4% | 0% | CN(C)S(=O)(=O)c1ccc(Cl)c(C(=O)NCCNC(=O)c2cc(S(=O)(=O)N(C)C)ccc2Cl)c1

Remaining list, next part.
cpd | GLA inh pH 4.5 | miR-21 FLuc | Rango-impB inh | Rango dissoc inh | smiles
41 | -6 | -2% | -0.5% | -13% | CCn1cc(CNC(=O)CCc2ccc(OC)cc2)cn1
42 | 0 | 0% | -0.2% | 18% | N#C/C(=C\Nc1ccc(F)c(Cl)c1)C(=O)C1CC1
43 | 4 | -41% | -0.5% | 6% | NC(=O)c1c(NC(=O)Cc2cccs2)sc2c1CCC2
44 | -3 | 10% | -2.4% | 9% | Cn1c(CSCc2ccccc2Cl)nnc1SCC(=O)Nc1nccs1
45 | -4 | -9% | -0.3% | -6% | COc1ccc(NC(=O)CCn2nc(C)cc2C)cc1
46 | / | / | 3.6% | -1% | CN(c1ccccc1)S(=O)(=O)c1cccc(NC(=O)C2CCCO2)c1 (stereo not drawn)
47 | / | -12% | -0.8% | -11% | CC(Oc1cc2oc(=O)c3c(c2cc1Cl)CCC3)C(=O)NCCN1CCOCC1 (stereo not drawn)
48 | 2 | -6% | 0.8% | -4% | Cc1ccc(Cl)cc1NS(=O)(=O)c1c(C)[nH]c(=O)[nH]c1=O
49 | -3 | 24% | -4.2% | -14% | COc1ccc(CNCC(O)(c2ccc(Cl)cc2)c2ccc(Cl)cc2)cc1OC
50 | 2 | -38% | ? | -17% | Cc1ccc(CNC(=O)c2ccc(N(C)C)cc2)cc1
51 | -4 | 0% | 5.6% | -6% | COc1ccc(NC(=O)COC(=O)CNS(=O)(=O)c2ccc(C)cc2)c(OC)c1
52 | / | -3% | 5.6% | 9% | CCOC(=O)C1(CCOC)CCN(C(=O)Cc2ccc3ccccc3c2)CC1
53 | 0 | 0% | -0.8% | 20% | COc1ccc(-c2nn(CCC(=O)O)cc2/C=C/C(=O)O)cc1[N+](=O)[O-]
54 | 0 | -9% | -0.5% | 8% | CCCCc1c(C)c2ccc(OC)c(/C(C)=N\O)c2oc1=O
55 | 6 | 7% | / | / | COc1ccc(Oc2coc3cc(OCC(=O)N4CCCCC4)ccc3c2=O)cc1
56 | / | / | ? | ? | Cc1cnc(C(=O)OCc2nc3ccsc3c(=O)[nH]2)cn1
57 | 0 | -2% | / | / | Cc1ccc(C)c2[nH]c(=O)c(CCNC(=O)C(C)C)cc12
58 | / | 0% | -1.3% | -11% | COc1ccc(C2=NN(C(=O)CCC(=O)O)C(c3ccc(OC)c(OC)c3)C2)cc1 (stereo not drawn)
59 | / | -4% | -2.6% | -1% | Cc1cccc(NC(=O)CSCc2cc(=O)n3nc(C4CC4)sc3n2)c1
60 | / | -1% | 0.8% | -11% | CC(=O)c1ccc(N2CCN(C(=O)COc3ccc4c(c3)CCC4)CC2)cc1

3 compounds out of the list above, ordered by their value in miR-21 FLuc, ascending.
entry | molecule | miR-21 FLuc
45 | COc1ccc(NC(=O)CCn2nc(C)cc2C)cc1 | -9%
59 | Cc1cccc(NC(=O)CSCc2cc(=O)n3nc(C4CC4)sc3n2)c1 | -4%
49 | COc1ccc(CNCC(O)(c2ccc(Cl)cc2)c2ccc(Cl)cc2)cc1OC | 24%

Excerpt, nos. 58–60
cpd | GLA inh pH 4.5 | miR-21 FLuc | Rango-impB inh | Rango dissoc inh | smiles
58 | / | 0% | -1.3% | -11% | COc1ccc(C2=NN(C(=O)CCC(=O)O)C(c3ccc(OC)c(OC)c3)C2)cc1 (stereo not drawn)
59 | / | -4% | -2.6% | -1% | Cc1cccc(NC(=O)CSCc2cc(=O)n3nc(C4CC4)sc3n2)c1
60 | / | -1% | 0.8% | -11% | CC(=O)c1ccc(N2CCN(C(=O)COc3ccc4c(c3)CCC4)CC2)cc1

Carrying on:
cpd | GLA inh pH 4.5 | miR-21 FLuc | Rango-impB inh | Rango dissoc inh | smiles
61 | -8 | -3% | 0.2% | 0% | COc1ccc(NC(=S)N2CCN(C(=O)c3ccccc3)CC2)cc1
62 | -3 | -27% | -0.1% | 1% | CN(C)/C(CN1CCOCC1)=C1\N=C(c2ccccc2)OC1=O
63 | -5[21.1 µM] | -1% | -1.0% | 11% | CCCCN(CCCC)Cc1ccc(C(=O)NN)o1
64 | / | / | 1.9% | 3% | COc1ccc(NC(=O)C(=O)NCC(c2ccco2)N2CCc3ccccc3C2)cc1 (stereo not drawn)
65 | 9 | 4% | 5.9% | -5% | CCOC(=O)c1ccccc1-c1csc(N)n1
66 | 2 | -16%&-12% | -1.5% | -6% | Cc1ccc(C)c(NC(=O)CN(C)S(=O)(=O)c2cccc3cccnc23)c1
67 | -4 | -3% | 1.5% | 16% | O=C(NCCNc1nccc(C(F)(F)F)n1)c1cccc(C(F)(F)F)c1
68 | -2 | -10% | ? | -10% | COc1ccccc1OCCn1cc(/C=C(\C#N)C(=O)NCc2ccco2)c2ccccc21
69 | -3 | -2% | 5.1% | 14% | CC(C)(C)OC(=O)NC(Cc1ccccc1)C(=O)O (stereo not drawn)
70 | 0 | -9% | 5.7% | -4% | COc1ccc(OC)c(C(=O)c2coc3ccc(OC)cc23)c1
71 | -9 | ? | 5.1% | 2% | O=C(CNc1cccc2ccccc12)N/N=C/c1ccc([N+](=O)[O-])o1
72 | 4 | -42% | 1.1% | 5% | CCOC(=O)c1cc(-c2ccc3c(c2)OCCO3)n[nH]1
